Sa RN4220 lethal: S. aureus RN4220 growth inhibition; OD600, 16 h; inhibition, % (concentration not given with the values); hit rate 0.33% among 330,000; AID 1259311;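 active = z-score of -3 or lower and OD600 up to 0.18 on both plates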;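 also: plate controls were untreated cells for no effect and reference antibiotic for full effect; stock transfer was 100 nL into about 80 µL; one replicate is shown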
BJeLR lethal: BJeLR cell viability loss. BJeLR (HRASV12) viability, CellTiter-Glo ATP luminescence, 48 h; reference of the scale not given here. inhibition, % (concentration not given with the values). hit rate 0.17% among 300,000;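 active = replicate mean above 50%; inconclusive = above 50% but judged a plate artefact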;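 also: 50 nL library stock added to about 25 µL; numbers are from one replicate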
PrP UTR inh: inhibition of PrP 5' UTR reporter expression | cell-based PrP 5' UTR mRNA reporter, plate reader | inhibition, % (no concentration beside the values) | hit rate 0.35% among 340,000;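 active = every replicate at 50% or more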;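 also: 0 = median of the neutral control wells; tested in H4 reporter cells; numbers are from one replicate; inactives centre near -14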
Sa ugtP lethal: compounds lethal to S. aureus RN4220 ugtP deletion mutant; AID 1259309; hit rate 0.54% among 330,000; OD600 growth, 16 h; some inactives read as strong as hits; growth inhibition, % (concentration not given with the values);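 active = z-score under -3 and OD600 up to 0.15 on both plates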;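 also: plate controls were untreated wells for no effect and antibiotic for full effect; wells of about 80 µL received 100 nL stock; the first replicate is given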
Mtb hypoxia rep: reduces hypoxia-regulated biosensor signal in M. tuberculosis; M. tuberculosis hypoxia-regulated fluorescent reporter, fluorescence; fluorescence inhibition, % (test concentration not listed); hit rate 0.1% among 300,000; AID 1159583;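 active = 35 to 45% if threefold the growth effect, above 45% if 1.5-fold the growth effect; inactive = the rest, general growth blockers included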;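 also: wells of about 50 µL received 100 nL stock; 0% = vehicle wells and 100% = reference inhibitor wells; whole bacteria with a GFP reporter of the hypoxia response; strong numbers were not always called active; many hits fall short of the cut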
Autofluor counter: compound fluorescence in toxin protease inhibitor counterscreen; compound autofluorescence counterscreen, microsphere flow cytometry; active compounds read high; fluorescence intensity (no concentration beside the values); hit rate 3.1% among 360,000;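 active = at least 3 SD above the mean of all compounds, about 16000 in these data; inconclusive = too few beads counted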;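 also: 100 nL of 1 mM stock went into each well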
Mtb hypoxia rep growth: recorded beside Mtb hypoxia rep, whose call it bears; growth inhibition, %; measured here: M. tuberculosis growth (absorbance);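 0% = vehicle and 100% = reference antibiotic; read after six days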
Active calls of the source: *; ? = inconclusive; nt = no result given.

SMILES	Sa RN4220 lethal	BJeLR lethal	PrP UTR inh	Sa ugtP lethal	Mtb hypoxia rep	Mtb hypoxia rep growth	Autofluor counter
CC(=S)/C=C1\Sc2ccccc2N1C	-0.3	4.1	-15.8	-1.3	-4.5	-1.1	8054
COc1cc(NC(=O)Cn2nnc(-c3ccncc3)n2)cc(OC)c1	-4.3	-17.3	-12.9	3.3	0.5	2.7	10868
COc1ccc(NC(=S)NN2CCN(C)CC2)cc1OC	3.1	-5.7	0.9	2.3	3.3	4.7	2046
Cc1nnc(NC(=O)c2cccc(S(=O)(=O)N3CCOCC3)c2)s1	1.5	-3.5	5.1	-6.4	nt	nt	2666
CC1OC(c2ccccc2)OC2COC(c3ccccc3)OC12 (configuration not stated)	7.1	nt	-11.1	5.6	3.1	2.9	4070
CN(Cc1ccccc1)C(=O)Cn1c(=O)c2cccn2c2cccnc21	1.8	-16.2	-15.2	-7.1	-6.6	0.6	5812
Cn1cccc1/C=C1\SC(=O)N(c2ccccc2)C1=O	nt	6.6	20.7	nt	nt	nt	2087
COc1ccc(OCCN2CCN(C(=O)c3ccc(OC(F)F)c(OC)c3)CC2)cc1	5.2	-1.5	-5.4	4.4	-4.1	3.1	5915
c1ccc(C[C@H]2CNCCN2CC2CCCCC2)cc1	nt	1.4	-12.6	nt	nt	nt	4199
CN(CCc1ccccc1)C(=O)c1cccc(NC(=O)Cc2cccc(NC(=O)C3CCN(C(=O)C4CCCCC4)CC3)c2)c1	-1.3	nt	-31.6	8.5	-0.1	2.0	3400
O=[N+]([O-])c1ccc(OCCn2cnc3ccccc32)cc1	5.3	-2.4	-11.6	6.9	-10.3	-2.0	4458
COc1ccc(C(CCN)Cc2ccccc2)cc1 (configuration not stated)	0.7	-0.8	-24.0	3.4	7.1	3.6	2085
N#Cc1cccc(-c2cn(S(=O)(=O)c3ccc(Cl)cc3)nc2N)c1	-6.2	-2.3	-8.6	0.1	nt	nt	5610
ON=C1c2cc(OCCN3CCCCC3)ccc2-c2ccc(OCCN3CCCCC3)cc21	4.3	10.0	-29.6	10.7	4.9	6.6	4135
CN1C(C(=O)NCc2cccc(Br)c2)CC2Cn3c(nc4cc5ccccc5cc43)C21 (configuration not stated)	-7.2	-5.5	-10.7	6.2	10.3	5.4	3878
COc1cccc(/C=C/C(=O)OCC(=O)N2c3ccccc3CC2C)c1OC (configuration not stated)	7.1	nt	-22.0	12.7	0.8	11.3	5930
CCc1ccccc1NC(=O)CSc1n[nH]c(-c2cccnc2)n1	3.9	-13.7	-21.4	4.2	6.5	5.1	3495
O=C(NC1CCN(Cc2ccccc2)CC1)C(NS(=O)(=O)c1cccc2nsnc12)c1ccccc1 (configuration not stated)	-3.6	-5.7	-23.4	6.3	-4.1	3.9	5448
COc1ccc(-c2cn(CCN)c(-c3ccncc3)n2)cc1	7.3	nt	12.9	6.7	18.5	8.2	3910
C=C(C)c1cccc(C(C)(C)NC(=O)N2CC(C)OC(C)C2)c1 (configuration not stated)	-0.8	-1.8	-12.3	4.2	nt	nt	4774
O=C(CCS(=O)(=O)c1ccc(Cl)cc1)Nc1ccc(N2CCOCC2)cc1	2.3	-4.9	-10.0	14.4	4.7	3.5	5115
O=C1Cc2ccccc2N1c1c(Cl)cccc1Cl	5.2	-1.3	-31.2	-1.9	nt	nt	2800
O=C(CCCO)NC1Cc2ccccc2C1	3.6	-2.3	-17.7	3.9	15.3	-1.0	4221
O=C(Nc1ccc(N2CCN(C(=O)c3ccco3)CC2)c(Cl)c1)c1c(F)c(F)c(F)c(F)c1F	7.4	-2.2	-20.5	-9.9	nt	nt	4645
COc1ccc(OC)c2[nH]c(=O)c(CCNC(=O)Cc3cccs3)cc12	6.0	-4.1	-27.9	12.3	-5.8	-3.7	3252
CC(=O)N1CCc2cc(Br)cc(S(=O)(=O)NCC3CCCO3)c21 (configuration not stated)	-0.7	-10.2	-21.0	11.0	nt	nt	2919
COc1ccc(NS(=O)(=O)c2ccc3oc(SC4CCOC4=O)nc3c2)cc1 (configuration not stated)	-3.0	0.1	-6.3	-0.7	nt	nt	4991
CCOC(=O)C1CCN(C(=O)C(C)N(c2ccc(Oc3ccccc3)cc2)S(C)(=O)=O)CC1 (configuration not stated)	-5.6	3.9	-17.3	1.4	7.3	-2.4	4516
C[C@H](CO)N1C[C@H](C)[C@@H](CN(C)C)Oc2c(NC(=O)C3CC3)cccc2C1=O	-8.1	nt	-19.0	3.0	5.4	6.6	2872
CSCC[C@H](NC(=O)Cc1c(C)c2c(cc(C)c3c(C)c(C)oc32)oc1=O)C(=O)O	1.7	4.1	-14.0	1.2	12.3	3.1	3644
CCOc1ccc(C(=O)Nc2nc(C)cc(C)n2)cc1[N+](=O)[O-]	5.0	2.6	-16.1	-1.1	4.6	-3.5	7293
CC1CC(C)CN(S(=O)(=O)c2ccc(C(C)(C)C)cc2)C1 (configuration not stated)	7.6	10.9	-6.5	10.3	0.4	-5.4	3223
Cc1ccc(CS(=O)Cc2ccc(C(=O)NCCc3ccccc3)o2)cc1 (configuration not stated)	-0.8	10.2	-7.6	18.2	6.9	19.2	6133
O=[N+]([O-])c1nn(-c2ccc3c(c2)OCCO3)n(O)c1=NCc1ccccc1Cl	-3.2	-8.4	-63.8	18.6	4.6	-0.6	7389
CS(=O)(=O)c1cccc(C(=O)OCC(=O)NC(=O)Nc2ccccc2F)c1	3.2	nt	-29.9	0.6	3.8	5.2	4150
COc1cccc(C(=O)NCCS(=O)(=O)N2CCCCC2)c1	1.5	2.2	-9.3	9.4	5.8	8.3	?
Cc1c([N+](=O)[O-])cnc(Sc2ccccc2)c1[N+](=O)[O-]	-4.1	7.5	-17.4	4.2	5.9	-10.2	3740
COc1c(C)cc(Br)cc1C(=O)Nc1ccc(N2CCN(S(C)(=O)=O)CC2)cc1	2.9	6.4	-30.4	2.3	1.5	0.1	9770
O=C(Oc1ccc(C=Nn2cnnc2)cc1)c1cccc([N+](=O)[O-])c1	1.7	nt	nt	7.2	4.1	-0.3	nt
O=C(OCC(=O)N1CCCC1)c1ccccc1O	3.6	-8.9	-55.6	7.6	6.8	12.6	5658
COC(=O)Cn1c(C)c(C(C)=O)c(C(C)=O)c1C	-11.1	0.6	-14.4	4.6	nt	nt	2504
COc1ccc([N+](=O)[O-])cc1N(CC(=O)N1CCN(Cc2ccccc2)CC1)S(C)(=O)=O	1.7	-2.5	3.6	3.4	-0.2	-3.9	3018
Cc1cccc(NS(=O)(=O)c2cc3c4c(c2)C(C)C(=O)N4CCC3)c1 (configuration not stated)	7.2	6.4	-17.7	0.1	4.4	2.9	5415
CCCOc1ccc(C(=O)Nc2ccc(N3CCN(C(C)=O)CC3)cc2)cc1	-0.7	2.3	-18.4	1.9	13.6	14.4	3555
CCN(CC)C(=O)COc1cc(C)c(Cl)c(C)c1	11.8	-14.5	-22.0	3.1	16.1	14.3	12966

Part of the list above, as comma-separated lines.
mol,Sa RN4220 lethal,BJeLR lethal,PrP UTR inh,Sa ugtP lethal,Mtb hypoxia rep,Mtb hypoxia rep growth,Autofluor counter
Cc1ccc(CS(=O)Cc2ccc(C(=O)NCCc3ccccc3)o2)cc1 (configuration not stated),-0.8,10.2,-7.6,18.2,6.9,19.2,6133
O=[N+]([O-])c1nn(-c2ccc3c(c2)OCCO3)n(O)c1=NCc1ccccc1Cl,-3.2,-8.4,-63.8,18.6,4.6,-0.6,7389
CS(=O)(=O)c1cccc(C(=O)OCC(=O)NC(=O)Nc2ccccc2F)c1,3.2,nt,-29.9,0.6,3.8,5.2,4150
COc1cccc(C(=O)NCCS(=O)(=O)N2CCCCC2)c1,1.5,2.2,-9.3,9.4,5.8,8.3,?
Cc1c([N+](=O)[O-])cnc(Sc2ccccc2)c1[N+](=O)[O-],-4.1,7.5,-17.4,4.2,5.9,-10.2,3740
COc1c(C)cc(Br)cc1C(=O)Nc1ccc(N2CCN(S(C)(=O)=O)CC2)cc1,2.9,6.4,-30.4,2.3,1.5,0.1,9770
O=C(Oc1ccc(C=Nn2cnnc2)cc1)c1cccc([N+](=O)[O-])c1,1.7,nt,nt,7.2,4.1,-0.3,nt
O=C(OCC(=O)N1CCCC1)c1ccccc1O,3.6,-8.9,-55.6,7.6,6.8,12.6,5658
COC(=O)Cn1c(C)c(C(C)=O)c(C(C)=O)c1C,-11.1,0.6,-14.4,4.6,nt,nt,2504
COc1ccc([N+](=O)[O-])cc1N(CC(=O)N1CCN(Cc2ccccc2)CC1)S(C)(=O)=O,1.7,-2.5,3.6,3.4,-0.2,-3.9,3018

Additional entries follow.
SMILES	Sa RN4220 lethal	BJeLR lethal	PrP UTR inh	Sa ugtP lethal	Mtb hypoxia rep	Mtb hypoxia rep growth	Autofluor counter
COc1ccc(-c2nnc3n2N=C(C)CS3)cc1	2.4	4.1	-11.9	-4.4	4.0	6.5	23552*
CCOC(=O)c1[nH]c(C)c(C(=O)N2CCc3ccccc32)c1C	5.9	51.6*	49.6	-0.5	-1.7	-6.7	2522
C(=N\c1nc2ccccc2n1CCN1CCCCC1)/c1cccs1	nt	3.1	-13.9	nt	nt	nt	4188
O=c1cc(C(F)F)oc2c1ccc1ccccc12	6.4	-5.5	-26.6	11.1	7.3	1.9	7425
O=C(NCc1ccccc1)C(=O)Nc1nc(-c2ccccc2)cs1	-0.6	8.8	-21.1	-7.2	15.7	10.0	4262
Cc1ccc(NS(=O)(=O)c2c(C)ccc3nsnc23)c([N+](=O)[O-])c1	15.6	3.9	-21.0	-6.8	2.5	0.0	3720
CC(=O)NC12CC3CC(C1)CC(C(=O)Nc1ccc(C)c(S(=O)(=O)N4CCCCCC4)c1)(C3)C2	3.5	nt	-17.0	3.8	13.4	7.2	3103
CN(C)c1ccc(C=Nc2cnn(C)c2C(N)=O)cc1	-3.1	nt	-33.6	3.7	nt	nt	4927
O=C1NCC(Nc2ccccc2)C(=O)N1 (configuration not stated)	3.9	nt	-20.2	1.8	4.8	2.9	4111
Cc1cccc(C=NNC(=O)c2cccc([N+](=O)[O-])c2)n1	1.7	nt	nt	-1.9	-3.0	5.4	nt
O=C(Nc1cccc(F)c1)/C(=C\c1ccco1)NC(=O)c1cccs1	2.6	-11.1	-24.9	-7.5	2.2	2.6	9237
CC(=NNC(=O)c1ccc(Cl)c(Cl)c1)c1ccc(Br)s1	46.0	nt	nt	-9.1	2.9	5.2	nt
O=C(Nc1cc(S(=O)(=O)N2CCOCC2)ccc1N1CCCCC1)c1ccccc1	0.3	nt	-7.0	1.7	3.1	3.8	6671
CC(C)(C)OC(=O)NC(C(=O)OC(C)(C)C)c1ccc(Br)cc1 (configuration not stated)	-6.1	nt	nt	6.5	10.5	-1.1	nt
CCN(CC)S(=O)(=O)c1ccc(Oc2ccccc2)cc1	6.6	0.7	-27.7	21.0	18.7	3.4	8305
COc1ccc(Cl)c(OC)c1C(=O)NC(=O)Nc1c(F)cc(F)cc1F	nt	10.1	3.2	nt	nt	nt	5929
COc1ccc(OC)c(C2C(C(=O)c3ccccc3)=C(C)Nc3nc4ccccc4n32)c1 (configuration not stated)	5.2	4.0	-22.5	-6.7	-1.6	-4.7	5939
O=C(Nc1ccc2nccnc2c1)Nc1ccccc1Cl	-2.5	-3.7	-19.9	8.0	-0.5	7.5	3529
CCOC(=O)C1CCN(c2nc(-c3ccc(Br)cc3)nc3ccccc23)CC1	-5.2	6.1	-7.4	25.1	0.6	3.3	3535
Cn1c(SCC(=O)NCCc2ccc(S(N)(=O)=O)cc2)nc2ccccc2c1=O	15.2	-4.5	-19.0	9.2	11.3	13.6	3644
CC(C)C(=O)Nc1ccc(C(=O)N2CCCCCC2)cc1	4.6	-4.8	-11.8	-0.3	14.4	6.5	10055
CCOC(=O)c1ccc(Nc2nc(C(=O)OCC)nc3ccccc23)cc1	2.1	-10.3	-10.1	-21.9	3.9	9.9	3318
Cn1c(SCC(=O)Nc2ccccc2Br)nnc1-c1cnccn1	3.1	6.5	-15.2	12.0	2.9	-0.4	4971
O=C(Cc1ccccc1)NCC(=O)N1CCCCC1	4.1	2.7	-19.4	6.0	-3.7	7.2	3187
